PINK1 expr mod = A Quantitative High throughput Screen to Identify Chemical Modulators of PINK1 Expression. Potency, µM (titrated, usually from 76.6 µM), inactives show at the highest dose activation (PINK1 increase), usual class: activators. PINK1 immunofluorescence, high-content cytometry, 24 h. AID 624263, 2012. 410,000 tested, 0.2% active; active = well fitted activation curve with a large enough effect; inconclusive = small, poorly fitted or top-dose-only effect; inactive = flat fitted curve, though single readings scatter; cell line not stated here;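 also: % of control where 0% means no effect; nearly all actives have a fitted effect of over 65% in size; a mitochondrial uncoupler was the plate control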
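Readout is PINK1 immunofluorescence, quantified alongside mitochondrial, cell and nuclear markers by laser-scanning microplate cytometry. Cells from a stable line were exposed to compound titrations (5 concentrations) for 24 hours, with CCCP controls.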
* hit, by the source's call; & = joins results of further samples. Potency is read from the fitted curve at half-maximal effect.

PINK1 expr mod	smiles
1.3%	Cc1cnc(-n2ncc(C(=O)NCCN3CCOCC3)c2C2CC2)nc1-c1cccs1
0.4%	CN(C)c1ncnc2ccc(-c3cccnc3)cc12
0.8%	O=C1Cc2cc(S(=O)(=O)N3CCN(c4ccc(C(=O)O)cc4)CC3)ccc2N1
0.7%	O=C([C@@H]1C[C@@H](Sc2nc3ccccc3[nH]2)CN1Cc1ccc(Cl)cc1)N1CCN(c2ccccc2F)CC1
-0.3%	Cc1ncc2c(c1CNC(=O)c1ccsc1)CCN(C(=O)c1c(F)cccc1Cl)C2
1.7%	COc1cc(O)cc(OC)c1OC
-0.6%	COC(=O)N1CCC2(CC1)CN(C(c1ccccc1)c1ccccc1)C2
0.0%	Cc1ccc2c(c1)c1c(n2CCc2ccc(C)nc2)CCN(C)C1
0.4%	Cc1csc(C(C)N(C)C(=O)c2cnn(-c3nccc(-c4cc(C)sc4C)n3)c2C)n1 (stereo not given)
-0.3%	Cc1ccc(CSc2nnc(-c3cccc4ccccc34)o2)cc1
-1.1%	COc1ccc(CN2CCOc3ccc(CN4CCCCC4CO)cc3C2)c(OC)c1 (stereo not given)
-1.0%	Cc1nc(C)n(CC(=O)NCC2Cc3cc(-c4cccc(OC(F)(F)F)c4)ccc3O2)n1 (stereo not given)
2.7%	COCCNc1ncnc2ccc(-c3ccc(C(=O)N(C)C)cc3)cc12
0.1%	N#Cc1cccc(-c2nccc(NCc3ccccc3)n2)c1
-0.6%	COCc1ccc(CN2Cc3ccccc3OC(c3ccccc3OC)C2)o1 (stereo not given)
1.5%	O=C(Nc1cccc(F)c1)N1CCCC2(CCN(S(=O)(=O)c3ccccc3)CC2)C1
10%	CN1CCN(c2ncc3nc(-c4cn(C)c5ccccc45)c(=O)n(C[C@H]4CCCO4)c3n2)CC1
2.7%	CSc1nnc(CNC(=O)c2cccc3ccccc23)n1-c1ccccc1C
1.3%	CC(=O)NC(c1cc(F)c2cccnc2c1O)C1CC1 (stereo not given)
1.2%	COc1ccc2c(c1OC)C(=O)O[C@@H]2[C@H]1c2c(cc3c(c2OC)OCO3)CCN1C
14%	Cn1c(=O)c(CCc2ccccc2)nc2cnc(Nc3ccccc3)nc21
3.1%	CC(C)CN1CC[C@@]2(CCCN(C(=O)c3ccco3)C2)C1
1.3%	COc1ccc2c(c1)CCc1cnc(-n3ncc(C(=O)N(C)CCc4ccccn4)c3C)nc1-2
0.0%	CN(Cc1ccco1)c1ccnc(-c2cccnc2)n1
1.6%	FC(F)(F)c1ccccc1-c1nc(Nc2ccncc2)c2ccccc2n1
-1.1%	COc1cc(-c2oc3cc(O)ccc3c(=O)c2O)ccc1O
-0.8%	CN1CCN(c2ccnc(-c3cccc(NS(C)(=O)=O)c3)n2)CC1
0.2%	Cc1nnsc1C(=O)NCC1Cc2cccc(-c3ncccn3)c2O1 (stereo not given)
0.1%	Cc1nc(NCc2c(F)cccc2F)sc1-c1ccn(CCN2CCOCC2)n1
3.5%	CC1(C)c2[nH]c3ccccc3c2C[C@@H]2C(=O)N(Cc3ccccc3Cl)C(=O)N21
0.1%	COc1ccccc1-c1ccnc(-n2ncc(C(=O)NCCc3ccccn3)c2C)n1
3.6%	Cc1c(C(=O)N2CCCCC2c2cccnc2)sc2ncnc(NCc3cccs3)c12 (stereo not given)
0.1%	COc1ccccc1Nc1nc(NCCCCO)nc(N2CCCC2)n1
-0.1%	COc1ccc(O)c(CN2CCC3(CCC(CNC(=O)c4ccccc4)O3)CC2)c1 (stereo not given)
-0.7%	Cc1cnc(-n2ncc(C(=O)NCCc3ccccn3)c2C)nc1-c1ccc(F)cc1
-0.8%	CC(C)C(=O)NCC1CCC2(CCN(Cc3ccc(-c4ccccc4Cl)o3)CC2)O1 (stereo not given)
-0.9%	O=C(NCC1CCC2(CCN(Cc3c[nH]c4ccccc34)CC2)O1)C1CCOCC1 (stereo not given)
-0.8%	CC(C)NC(=O)N1CCC2(CC1)CCN(C(=O)c1cnccn1)CC2
0.6%	COc1cc(=O)n2c(c1C(=O)N(C)Cc1ccsc1)CCN(Cc1c(C)nn(C)c1Cl)CC2
-1.1%	CN1CCN(c2nc(-c3ccoc3)nc3ccccc23)CC1
-0.1%	COc1ccc(C(=O)N2CCC3(CCCN(CC(C)C)C3)CC2)cc1
5.5%	COc1ccc(-c2nc3cnc(N(C)C)nc3n(Cc3ccc(F)cc3)c2=O)cc1
1.1%	CN(C)C(=O)c1ccc(-c2ccc3ncnc(N4CCC(C(=O)O)CC4)c3c2)cc1
-1.1%	Cc1cccc(CNC(=O)c2cnn(-c3ncc(C)c(-c4cccs4)n3)c2C2CC2)n1
-0.5%	O=C(c1cccc(F)c1)N1CCC2(CCCN(Cc3ccccc3)C2)CC1
0.8%	CCNc1ncc2nc(-c3cccs3)c(=O)n(C)c2n1
1.5%	CC(=O)c1ccc(-c2cc(F)cc3c2OC(CNC(=O)C(C)N2CCOCC2)C3)s1 (stereo not given)
1.3%	COc1cccc(Nc2ncc3nc(CCc4ccccc4)c(=O)n(C[C@H]4CCCO4)c3n2)c1
2.6%	Cc1c(C(=O)NC2CCCCCC2)sc2ncnc(NCC3CCCO3)c12 (stereo not given)
0.5%	Cc1noc(C)c1-c1cncnc1NC1CC1
3.4%	CS(=O)(=O)Nc1cccc(-c2nc(NCc3cccnc3)c3ccccc3n2)c1
0.0%	COC(=O)N1CCC2(CCCN(Cc3cc(C(F)(F)F)cc(C(F)(F)F)c3)C2)CC1
-0.5%	COC(=O)N1CCC2(CCN(C(=O)Nc3ccc(OC)cc3)CC2)CC1
0.1%	CC(=O)O[C@]1(C)CC[C@]23CC1C(C)(C)C2CC[C@@H]3C (stereo not given in full)
-0.8%	CCNc1ncc2nc(-c3ccccc3)c(=O)n(C3CC3)c2n1
8.7%	COCCn1c(=O)c(-c2ccc(Cl)cc2)nc2cnc(OCc3ccccc3)nc21
5.2%	COc1ccc(-c2nc3cnc(N4CCOCC4)nc3n(CCc3ccccc3)c2=O)cc1
1.3%	CN(C(=O)c1cnn(-c2nccc(-c3ccccc3C(F)(F)F)n2)c1C1CC1)C1CCOC1 (stereo not given)
-0.3%	COc1ccc(-c2nc3cnc(N4CCOCC4)nc3n(Cc3cccc(OC)c3)c2=O)cc1
3.0%	Cc1noc(C)c1-c1ccc2ncnc(NC3CC3)c2c1

A draw from above in order of length of the SMILES, ascending:
PINK1 expr mod	smiles
-0.8%	CCNc1ncc2nc(-c3ccccc3)c(=O)n(C3CC3)c2n1
8.7%	COCCn1c(=O)c(-c2ccc(Cl)cc2)nc2cnc(OCc3ccccc3)nc21
1.3%	CN(C(=O)c1cnn(-c2nccc(-c3ccccc3C(F)(F)F)n2)c1C1CC1)C1CCOC1 (stereo not given)

Continuation.
PINK1 expr mod	smiles
5.6%	Cc1noc(C)c1-c1cncnc1NCc1ccccc1
-1.1%	CN1CCN(c2ncc3nc(-c4ccccc4)c(=O)n(C)c3n2)CC1
0.2%	O=C(Nc1cccc(F)c1)N1CC[C@@]2(CCCN(C(=O)c3ccco3)C2)C1
0.0%	OCCNc1nc(Nc2ccccc2O)nc(N2CCCC2)n1
0.2%	CN(Cc1ccco1)c1ccnc(-c2cccc(NS(C)(=O)=O)c2)n1
-0.4%	O=C(c1cn(C2CCCN(Cc3cccc(Oc4ccccc4)c3)C2)nn1)N1CCCC1 (stereo not given)
-0.6%	O=C(Nc1ccccc1)N1CCC2(CC1)CCN(S(=O)(=O)c1ccccc1)CC2
0.3%	COC(=O)c1cc(=O)c(O)c2c(O)c(O)ccc2c1
1.0%	O=S(=O)(c1ccccc1)N1CCC2(CC1)CN(c1ccncc1)C2
0.9%	Cc1ccc(F)cc1CNC(=O)c1sc2ncnc(NCC3CCCO3)c2c1C (stereo not given)
-0.9%	O=C(CCc1cccnc1)NCC1Cc2cccc(-c3ncccn3)c2O1 (stereo not given)
1.4%	O=C(Nc1ccccc1)N1CCCC2(CCN(S(=O)(=O)c3ccccc3)CC2)C1
0.8%	COc1ncc2nc(CCc3ccccc3)c(=O)n(CCc3ccccc3)c2n1
7.5%	Cc1noc(C)c1-c1nc(NCc2ccccc2)c2ccccc2n1
2.2%	CCOC(=O)N1CCN(c2nc(CN3CCCCC3CCO)nc3c(C)cccc23)CC1 (stereo not given)
0.4%	COc1cccc(-c2ccc3ncnc(N4CCNCC4)c3c2)c1
5.8%	COc1ccccc1CCn1c(=O)cnc2cncnc21
0.2%	COc1ccc(C(=O)N2CCC3(CCCN(C)C3)CC2)cc1
0.6%	Cc1c(C(=O)NCC(C)(C)N2CCOCC2)cnn1-c1ncc2c(n1)-c1ccccc1CCC2
0.0%	O=C(c1cnccn1)N1CCC2(CC1)CCN(c1ccccc1)CC2
3.7%	COc1ccc(-n2c(=O)c(-c3cc(F)cc(F)c3)nc3cnc(N4CCOCC4)nc32)cc1
0.0%	O=C(Nc1cccc(F)c1)N1CCC2(CC1)CCN(C(=O)c1ccncc1)CC2
-1.3%	COc1ccc(Oc2ncc3ncc(=O)n(C)c3n2)cc1
0.8%	CCn1nc(C)cc1C(=O)NCC1Cc2cc(C)cc(-c3ccccc3C(=O)OC)c2O1 (stereo not given)
1.1%	COC(=O)[C@@H]1CCCN1Cc1ccc2c(c1)CN(Cc1coc3ccc(C)cc3c1=O)CCO2
0.0%	CS(=O)(=O)Nc1cccc(-c2cncnc2NCc2ccccc2)c1
0.5%	CNC(=O)[C@@H]1C[C@H](Sc2nc3ccccc3[nH]2)CN1Cc1cccc(C(F)(F)F)c1
2.5%	Cc1cc2c(c(-c3cnccn3)c1)OC(CNC(=O)c1cc(C(C)C)[nH]n1)C2 (stereo not given)
1.3%	O=C(O)CCc1ccc(NCc2cccc(Oc3ccccc3)c2)cc1
10%	Cc1cccc(CN2C(=O)[C@H]3Cc4c([nH]c5ccccc45)C(C)(C)N3C2=O)c1
-0.1%	CC(O)(COc1ccccc1)c1ccc2c(c1)CN(Cc1cn[nH]c1-c1ccc(F)cc1)CCO2 (stereo not given)
-0.2%	O=C(Oc1ccccc1)N1CCC[C@@]2(CCN(c3ccncc3)C2)C1
0.4%	O=c1cc(-c2ccccc2O)oc2cc(O)ccc12
-0.1%&-0.4%	c1csc(CNc2ncnc3ccc(-c4ccoc4)cc23)c1
1.1%	O=c1c(CCc2ccccc2)nc2cnc(Oc3cccc(Cl)c3)nc2n1C[C@H]1CCCO1
-0.6%	O=c1c(-c2ccc(F)c(F)c2)nc2cncnc2n1-c1ccccc1
0.5%	O=C(c1cc(C(F)(F)F)cc(C(F)(F)F)c1)N1CCC2(CC1)CN(c1ncccn1)C2
0.9%	CN(CCO)C(=O)c1cn(C2CCN(Cc3cccc(C(F)(F)F)c3)CC2)nn1
-0.5%	CCc1nc2cc(C(=O)N3CCC[C@H]3C(=O)OC)cc(NC(=O)c3ccccc3OC)c2n1C
0.4%	COc1ccccc1-c1ccnc(-n2ncc(C(=O)N(C)C(C)c3ccon3)c2C2CC2)n1 (stereo not given)

Ordered by SMILES length (highest first): part of the list above.
PINK1 expr mod	smiles
0.5%	CNC(=O)[C@@H]1C[C@H](Sc2nc3ccccc3[nH]2)CN1Cc1cccc(C(F)(F)F)c1
-0.5%	CCc1nc2cc(C(=O)N3CCC[C@H]3C(=O)OC)cc(NC(=O)c3ccccc3OC)c2n1C
3.7%	COc1ccc(-n2c(=O)c(-c3cc(F)cc(F)c3)nc3cnc(N4CCOCC4)nc32)cc1
10%	Cc1cccc(CN2C(=O)[C@H]3Cc4c([nH]c5ccccc45)C(C)(C)N3C2=O)c1
0.4%	COc1ccccc1-c1ccnc(-n2ncc(C(=O)N(C)C(C)c3ccon3)c2C2CC2)n1 (stereo not given)
1.1%	O=c1c(CCc2ccccc2)nc2cnc(Oc3cccc(Cl)c3)nc2n1C[C@H]1CCCO1
0.8%	CCn1nc(C)cc1C(=O)NCC1Cc2cc(C)cc(-c3ccccc3C(=O)OC)c2O1 (stereo not given)
1.4%	O=C(Nc1ccccc1)N1CCCC2(CCN(S(=O)(=O)c3ccccc3)CC2)C1
2.2%	CCOC(=O)N1CCN(c2nc(CN3CCCCC3CCO)nc3c(C)cccc23)CC1 (stereo not given)
0.8%	COc1ncc2nc(CCc3ccccc3)c(=O)n(CCc3ccccc3)c2n1
-0.6%	O=c1c(-c2ccc(F)c(F)c2)nc2cncnc2n1-c1ccccc1
-0.9%	O=C(CCc1cccnc1)NCC1Cc2cccc(-c3ncccn3)c2O1 (stereo not given)
0.0%	CS(=O)(=O)Nc1cccc(-c2cncnc2NCc2ccccc2)c1
1.3%	O=C(O)CCc1ccc(NCc2cccc(Oc3ccccc3)c2)cc1
7.5%	Cc1noc(C)c1-c1nc(NCc2ccccc2)c2ccccc2n1
0.2%	COc1ccc(C(=O)N2CCC3(CCCN(C)C3)CC2)cc1
-0.1%&-0.4%	c1csc(CNc2ncnc3ccc(-c4ccoc4)cc23)c1
-1.3%	COc1ccc(Oc2ncc3ncc(=O)n(C)c3n2)cc1
0.4%	O=c1cc(-c2ccccc2O)oc2cc(O)ccc12
5.8%	COc1ccccc1CCn1c(=O)cnc2cncnc21

An excerpt (hit frequency here may not be typical).
